Bioassay records (PubChem)
Beta apoptosis – beta cell apoptosis inhibition. INS-1E cytokine-induced death, ATP luminescence, 48 h; percent of positive-control rescue, neutral wells zero. protection from apoptosis, % (concentration not given with the values). 0.8% of 300,000 active. AID 435005;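 active means all replicates at 75% or more, or half of them and the mean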;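 further: 0% = cytokine-treated negative control wells and 100% = positive control rescue; higher means more ATP so stronger rescue from cytokine killing; wells of about 40 µL received 100 nL stock; the first replicate is given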
UCH37 DUB inh – human UCH37 deubiquitinating enzyme inhibition | Q9Y5K5 | purified proteasome/UCH37, Ub-AMC cleavage fluorescence | inhibition, % (test concentration not listed) | 0.33% of 330,000 active | AID 588478;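 active means mean of two replicates above 20%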;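 further: 0% = compound-free wells with enzyme and 100% = wells lacking proteasome; stock transfer was 100 nL into about 20 µL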
Target sequence (Q9Y5K5 whole entry, looked up): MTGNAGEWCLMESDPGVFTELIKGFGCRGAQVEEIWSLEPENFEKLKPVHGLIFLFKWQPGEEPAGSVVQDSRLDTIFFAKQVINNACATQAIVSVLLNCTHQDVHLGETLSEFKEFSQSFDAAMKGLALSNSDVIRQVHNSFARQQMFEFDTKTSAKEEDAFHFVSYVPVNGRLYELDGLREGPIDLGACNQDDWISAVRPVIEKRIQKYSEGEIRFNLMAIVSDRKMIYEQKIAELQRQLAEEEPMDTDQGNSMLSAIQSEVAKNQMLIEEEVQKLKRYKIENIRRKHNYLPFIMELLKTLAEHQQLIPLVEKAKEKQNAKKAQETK
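Material: human UCH37 enzyme supplied as purified proteasome complex / Amount: 0.15 nM proteasome as dispensed / Buffer or medium: pH 7.4 Tris-HCl (50 mM) with ovalbumin, ATP-MgCl2, DTT / Times: preincubation 30 min, reaction 25 min, room temperature / Technique: AMC fluorescence from Ub-AMC cleavage, excitation 355 nm, emission 460 nm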
FGF22 binding – FGF22 (human) thermal shift binding; Q9HCT0; recombinant FGF22 thermal shift, SYPRO orange fluorescence; percent of sucrose octasulfate shift, DMSO zero; calls only at 9.99 µM; 1.5% of 340,000 active; AID 651658;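 active means melting point raised past a set limit in the mean and every replicate; three in four hits are not shown here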
Target sequence (Q9HCT0 whole entry, looked up): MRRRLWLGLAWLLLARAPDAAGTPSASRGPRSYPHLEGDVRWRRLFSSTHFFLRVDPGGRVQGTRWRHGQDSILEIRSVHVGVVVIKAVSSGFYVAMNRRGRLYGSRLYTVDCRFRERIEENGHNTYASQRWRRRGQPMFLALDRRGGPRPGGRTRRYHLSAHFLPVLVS
T cruzi inh – blocks replication of Trypanosoma cruzi. T. cruzi beta-gal in NIH3T3, luminescence, 90 h. inhibition, % (no concentration beside the values). 1.4% of 300,000 active;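 active means mean inhibition across valid replicates above about 55%, limit read from the data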;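 further: signal also drops with host cell toxicity which is not excluded here; 0% = plate median of DMSO wells and 100% = zero luminescence signal; higher percent means less beta-gal luminescence so fewer parasites; stock transfer was 50 nL into about 50 µL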
A1 inh – inhibitors of the anti-apoptotic protein A1, read as caspase activation | MEF A1-2A-BIM cells, Caspase-Glo 3/7 luminescence, 3 h; percent of clofoctol response, vehicle zero | caspase activation, % (concentration not given with the values) | 0.066% of 330,000 active | AID 2462;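 active means over half of replicate activation scores above 10%, or exactly half above 10 with the replicate mean above 10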;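 further: wells of about 30 µL received 50 nL stock; many hits fall short of the cut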
rRNA inh HTS – inhibitors of bacterial rRNA selective over humanized ribosomes | E. coli WT GFP vs humanized-ribosome RFP mutants, fluorescence, 24 h; stronger effect = lower value; DMSO median 0, no signal -100 | GFP signal change (wild-type ribosome), % (no concentration beside the values) | 1.6% of 350,000 active | AID 720706;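 active means significant combined selectivity score with lowered wild-type GFP, culture density cut under 30%, mutant RFP and density less affected; inactive means any of these conditions unmet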; further: one replicate is shown; some compounds called inactive have numbers as strong as hits
Ecoli growth – inhibitors of Escherichia coli growth; 0.21% of 330,000 active; AID 1053175; OD600, 23 h; stronger effect = lower value; OD600 absorbance (no concentration beside the values);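 active means OD600 absorbance below the run mean of sample wells minus 3.6 SD, in any replicate, cut at about 0.56 in these data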;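 further: stock transfer was 300 nL into about 60 µL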
AF4-AF9 inh – inhibitors of human MLL-AF4/AF9 interaction. AID 651704. AlphaScreen, biotin-AF4 peptide binding to FLAG-AF9. P42568. 0.47% of 350,000 active. inhibition, % at 10 µM;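 active means every replicate reaching a set inhibition limit, whatever the replicate mean, cut at about 25% in these data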;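 further: 0% = plate neutral control median and 100% = total signal loss; the record names both 10 and 1 µM as test concentration; the first replicate is given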
Target sequence (P42568 whole entry, looked up): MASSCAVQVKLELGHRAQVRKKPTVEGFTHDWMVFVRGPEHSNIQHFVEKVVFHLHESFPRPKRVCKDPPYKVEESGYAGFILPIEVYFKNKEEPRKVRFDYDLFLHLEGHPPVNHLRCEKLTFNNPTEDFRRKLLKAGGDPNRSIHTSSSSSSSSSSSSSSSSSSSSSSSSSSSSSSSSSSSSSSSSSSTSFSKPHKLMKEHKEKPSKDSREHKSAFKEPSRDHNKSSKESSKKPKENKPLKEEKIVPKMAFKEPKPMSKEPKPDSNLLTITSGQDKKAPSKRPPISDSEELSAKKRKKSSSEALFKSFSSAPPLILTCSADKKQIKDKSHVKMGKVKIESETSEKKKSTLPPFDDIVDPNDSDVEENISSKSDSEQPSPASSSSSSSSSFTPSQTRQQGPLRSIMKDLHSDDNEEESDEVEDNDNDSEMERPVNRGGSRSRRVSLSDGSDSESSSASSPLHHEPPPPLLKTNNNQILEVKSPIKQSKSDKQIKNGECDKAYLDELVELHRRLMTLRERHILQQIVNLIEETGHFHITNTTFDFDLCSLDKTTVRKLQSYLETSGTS
rRNA inh HTS OD600 – further read-out of rRNA inh HTS, marked with its call; OD600 change, %; measured here: OD600 growth;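 optical density of the mix in the first replicate; 0 = DMSO median and -100 = no signal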
rRNA inh HTS RFP – also measured in rRNA inh HTS; calls as there; RFP signal change, %; measured here: RFP humanized mutant strains;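 first replicate; 0 = DMSO median and -100 = no signal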
* = called active by the depositor; i = inactive; · = not tested or not shown; & = joins results of further samples. An excerpt, so the mix of outcomes need not match the whole.

1. O=C(CN1CCN(C(=O)c2cncn2-c2ccccc2)CC1)Nc1ccccc1Cl
2. COCCNC(C)C(=O)C12CC3CC(CC(C3)C1)C2 (centres undefined)
3. C=CCn1c(-c2ccc(S(=O)(=O)N3CCOCC3)cc2)csc1=Nc1ccccc1
4. Cc1cc(C(=O)Nc2c(C)nn(Cc3ccc(Cl)cc3)c2C)no1
5. CCOCC(=O)Nc1ccccc1C(=O)O
6. CCOC(=O)c1c(C)oc2c1c(C(c1ccccc1)N1CCOCC1)c(O)c1ccccc12 (centres undefined)
7. CC(C)(C)NS(=O)(=O)c1ccc2nc(NC(=O)c3ccc(N4C(=O)CCC4=O)cc3)sc2c1
8. CN(C)C(=O)N(CCCN1CCOCC1)Cc1cccc2ccccc12

screen / no. | 1 | 2 | 3 | 4 | 5 | 6 | 7 | 8
Beta apoptosis | 0 | -2 | 6 | 0 | -2 | -1 | -8 | 0
UCH37 DUB inh | 3.4 | 1.5 | 3.1 | 4.2 | 1.2 | -9.4 | 2.8 | 6.6
FGF22 binding | i | · | · | i | i | · | · | i
T cruzi inh | · | -30 | 38 | -7 | -4 | 13 | -9 | 12
A1 inh | -0.6 | -0.1 | -0.5 | 0.4 | 0.4 | -0.1 | 0.2 | 0.2
rRNA inh HTS | -3 | 10 | · | 1 | 2 | · | · | 19
rRNA inh HTS OD600 | -2 | 1 | · | 6 | 5 | · | · | 8
rRNA inh HTS RFP | -0.9 | -3.3 | · | -0.5 | 2.0 | · | · | 4.6
Ecoli growth | 0.73 | 0.66 | 0.73 | 0.66 | 0.66 | 0.72 | 0.66 | 0.66
AF4-AF9 inh | -0.4 | -25 | · | -0.5 | 1.6 | · | -2.7 | 0.8

9. COc1ccccc1NS(=O)(=O)c1cc(C(=O)NCc2ccncc2)ccc1C
10. CC1=Nc2ccccc2/C1=C/c1sc(=S)n(-c2cccc(C(=O)O)c2)c1O
11. CN(CCCNC(=O)c1cccc(N2CCCC2=O)c1)c1ccccc1
12. CCc1cccc2c(C(=O)CSc3nncn3-c3ccccc3OC)c[nH]c12
13. COc1ccc2cc(C3(C)NC(=O)N(CC(=O)Nc4c(C)n(C)n(-c5ccccc5)c4=O)C3=O)ccc2c1 (centres undefined)
14. Cc1cc(NC(=O)c2ccc3c(c2)OCO3)ccc1NC(=O)c1ccccc1
15. NC(=O)CSc1nnc(NC(=O)C23CC4CC(CC(C4)C2)C3)s1
16. COc1ccccc1NS(=O)(=O)c1ccc2c(c1)NC(=O)C(C)S2 (centres undefined)

screen / no. | 9 | 10 | 11 | 12 | 13 | 14 | 15 | 16
Beta apoptosis | 3 | · | 5 | -7 | 0 | 2 | -1 | -1
UCH37 DUB inh | 0.9 | 26* | 1.3 | 0.7 | -0.5 | -21 | 8.2 | 1.0
FGF22 binding | i | i | · | i | · | i | · | i
T cruzi inh | -9 | 11 | -5 | 9 | -3 | -7 | 9 | 9
A1 inh | -0.6 | · | -0.1 | 0.9 | -0.5 | -8.3 | 0.6 | -0.6
rRNA inh HTS | 5 | -16 | · | 10 | · | 8 | · | -18
rRNA inh HTS OD600 | 5 | -37 | · | 6 | · | 7 | · | -15
rRNA inh HTS RFP | -1.4 | -1.3 | · | -2.9 | · | -0.9 | · | 4.0
Ecoli growth | 0.63 | 0.72 | 0.7 | 0.69 | 0.71 | 0.69 | 0.71 | 0.67
AF4-AF9 inh | 1.0 | 6.5 | · | -1.2 | · | 0.1 | · | 1.5

The closing 2 compounds of the section before lead into the next.
15. NC(=O)CSc1nnc(NC(=O)C23CC4CC(CC(C4)C2)C3)s1
16. COc1ccccc1NS(=O)(=O)c1ccc2c(c1)NC(=O)C(C)S2 (centres undefined)
17. O=C(NC(=S)Nc1ccccc1N1CCCCC1)c1ccc(F)cc1
18. COc1ccc(N2C(=O)CC(NCc3cccs3)C2=O)cc1 (centres undefined)
19. COC(=O)CCCC1=CC2=C(c3ccccc3)C(=O)C(C)(OC(=O)C3CCCC3)C(=O)C2=CN1C(CO)CO (centres undefined)
20. Cc1csc(NC(=O)CCNS(=O)(=O)c2ccc3c(c2)c(=O)n(C)c(=O)n3C)n1
21. CCOC(=O)c1sc(C)c2c1NC(c1ccc(Cl)cc1)NC2=O (centres undefined)
22. Cc1ccccc1-c1noc(CCC(=O)NC2CCCCC2)n1
23. CCN1CCN(C(=O)/C(C#N)=C/c2ccc(OC(F)F)cc2)CC1
24. O=C(NCC(=O)N1CCCCC1)c1sc2ccccc2c1Cl

screen / no. | 15 | 16 | 17 | 18 | 19 | 20 | 21 | 22 | 23 | 24
Beta apoptosis | -1 | -1 | · | -10 | -4 | -3 | -1 | -2 | -7 | -5
UCH37 DUB inh | 8.2 | 1.0 | 6.3 | 3.7 | 2.4 | 3.4 | -19 | -1.3 | 4.0 | 4.7
FGF22 binding | · | i | i | · | i | · | · | i | · | i
T cruzi inh | 9 | 9 | 16 | -9 | -22 | -22 | 26 | -8 | -9 | ·
A1 inh | 0.6 | -0.6 | -0.4 | 0.3 | 1.2 | 0.3 | 0.7 | 0.2 | 0.2 | -6.0
rRNA inh HTS | · | -18 | -4 | · | 5 | · | · | 4 | 5 | -14
rRNA inh HTS OD600 | · | -15 | -3 | · | 9 | · | · | 13 | 2 | -43
rRNA inh HTS RFP | · | 4.0 | -1.1 | · | 1.8 | · | · | -1.2 | 1.5 | -6.8
Ecoli growth | 0.71 | 0.67 | 0.7 | 0.71 | 0.61 | 0.68 | 0.8 | 0.66 | 0.65 | 0.66
AF4-AF9 inh | · | 1.5 | 4.9 | · | -1.8 | · | · | 0.1 | -0.4 | -0.1

25. COc1ccc(C2CC(c3cccs3)=NN2C(=O)COC(=O)c2cc3ccccc3cc2O)cc1OC (centres undefined)
26. CC(=O)N/N=C/c1cc(C)n(-c2ccc(Br)cc2)c1C
27. O=C(NCCS(=O)(=O)N1CCN(c2ccc(F)cc2)CC1)C12CC3CC(CC(C3)C1)C2
28. Cc1cc(C)c(NC(=O)C2=COCCO2)c(C)c1
29. Cc1c(C(=O)N2CCCCC2)sc(NC(=O)C23CC4CC(CC(C4)C2)C3)c1C#N
30. O=C(COc1cccnc1[N+](=O)[O-])NC1CCS(=O)(=O)C1 (centres undefined)
31. CCCCNC(=S)N/N=C1\CCCCc2ccccc21
32. CC(=O)CSc1nc(C(F)(F)F)cc(=O)n1-c1ccccc1

screen / no. | 25 | 26 | 27 | 28 | 29 | 30 | 31 | 32
Beta apoptosis | -4 | -6 | · | -3 | -2 | 3 | 11 | -9
UCH37 DUB inh | 4.1 | · | -0.6 | 0.6 | -0.5 | 4.4 | · | 2.8
FGF22 binding | i | i | · | i | · | · | i | ·
T cruzi inh | 6 | 12 | 10 | -11 | 11 | 0 | 11 | -11
A1 inh | -0.3 | -0.2 | -0.3 | -0.5 | -0.1 | -0.2 | 0.4 | 0.8
rRNA inh HTS | 10 | 2 | -5 | 16 | · | · | -25 | ·
rRNA inh HTS OD600 | 2 | 10 | -7 | 2 | · | · | -23 | ·
rRNA inh HTS RFP | 2.1 | -1.3 | -3.0 | 0.8 | · | · | 1.6 | ·
Ecoli growth | 0.7 | · | 0.66 | 0.63 | 0.69 | 0.72 | · | 0.72
AF4-AF9 inh | 11 | 8.0 | -0.5 | 6.4 | · | · | -1.8 | ·

33. COc1ccc(C2=NN(CC(=O)Nc3cc(C)ccc3C)C(=O)CC2)cc1
34. C#CCNC(=O)C1=C[C@@H](c2ccc3c(c2)OCO3)[C@H](CCCO)[C@@H](OCC)O1
35. COc1cc2c3c([nH]c2cc1F)C(=O)NCC3
36. O=C(NCc1ccc2c(c1)OCO2)c1c(Cl)cccc1Cl
37. O=C(c1ccccc1)C1C(c2ccccc2)C1[N+](=O)[O-] (centres undefined)
38. O=C(c1cc(-c2cccc(O)c2)on1)N1CCCCC1
39. COc1ccccc1CNC(=O)CS(=O)(=O)c1ccccc1
40. CCc1ccc(NC(=S)N2CCN(c3cccc(C(F)(F)F)c3)CC2)cc1

screen / no. | 33 | 34 | 35 | 36 | 37 | 38 | 39 | 40
Beta apoptosis | 2 | -6 | -19 | -1 | 13 | -3 | -12 | -1
UCH37 DUB inh | 2.3 | 4.4 | -23 | 3.2 | -0.4 | 5.2 | 0.2 | 2.6
FGF22 binding | · | i | i | i | i | i | i | ·
T cruzi inh | 2 | -27 | -1 | -11 | 10 | -7 | -3 | 1
A1 inh | -0.2 | 0.8 | 3.3 | 0.4 | -0.2 | -5.1 | -0.1 | -0.2
rRNA inh HTS | 10 | 2 | 12 | 12 | -7 | -6 | 2 | ·
rRNA inh HTS OD600 | 6 | 9 | 15 | 16 | -10 | -16 | 0 | ·
rRNA inh HTS RFP | 11 | 7.2 | -3.2 | 2.7 | -14 | -1.0 | -1.3 | ·
Ecoli growth | 0.69 | · | 0.68 | 0.66 | 0.71 | 0.74 | 0.74 | 0.78
AF4-AF9 inh | -17 | -0.8&-0.1 | 2.0 | -2.7 | -5.9 | 1.2 | -3.4 | ·

From compound 36 up to 40, as listed above:
36. O=C(NCc1ccc2c(c1)OCO2)c1c(Cl)cccc1Cl
37. O=C(c1ccccc1)C1C(c2ccccc2)C1[N+](=O)[O-] (centres undefined)
38. O=C(c1cc(-c2cccc(O)c2)on1)N1CCCCC1
39. COc1ccccc1CNC(=O)CS(=O)(=O)c1ccccc1
40. CCc1ccc(NC(=S)N2CCN(c3cccc(C(F)(F)F)c3)CC2)cc1

screen / no. | 36 | 37 | 38 | 39 | 40
Beta apoptosis | -1 | 13 | -3 | -12 | -1
UCH37 DUB inh | 3.2 | -0.4 | 5.2 | 0.2 | 2.6
FGF22 binding | i | i | i | i | ·
T cruzi inh | -11 | 10 | -7 | -3 | 1
A1 inh | 0.4 | -0.2 | -5.1 | -0.1 | -0.2
rRNA inh HTS | 12 | -7 | -6 | 2 | ·
rRNA inh HTS OD600 | 16 | -10 | -16 | 0 | ·
rRNA inh HTS RFP | 2.7 | -14 | -1.0 | -1.3 | ·
Ecoli growth | 0.66 | 0.71 | 0.74 | 0.74 | 0.78
AF4-AF9 inh | -2.7 | -5.9 | 1.2 | -3.4 | ·

The results go on.
41. COc1ccc(NC(=O)C(NC(C)=O)C(=O)NCc2ccc(F)cc2)cc1 (centres undefined)
42. Cc1nc2c(C)cccn2c1/C(O)=C1\C(=O)C(=O)N(CCN2CCOCC2)C1c1cccs1 (centres undefined)
43. N#C/C(=C\c1ccc(-c2ccccc2)o1)C(=O)Nn1cnnc1
44. Cc1ccc(C(=O)CSc2nnc(C(C)C)n2C)cc1C
45. O=C(CCNC(=O)Cn1ccc2ccccc2c1=O)NCCC1=CCCCC1

screen / no. | 41 | 42 | 43 | 44 | 45
Beta apoptosis | 0 | -16 | · | 2 | -6
UCH37 DUB inh | 2.4 | 9.8 | 13 | -1.0 | 0.1
FGF22 binding | · | · | · | i | i
T cruzi inh | · | -4 | 42 | 1 | -5
A1 inh | 0.6 | · | 0.4 | 0.9 | 0.3
rRNA inh HTS | · | · | · | 6 | 10
rRNA inh HTS OD600 | · | · | · | 16 | 19
rRNA inh HTS RFP | · | · | · | 2.1 | 12
Ecoli growth | 0.79 | 0.71 | 0.7 | 0.68 | 0.66
AF4-AF9 inh | · | · | · | -1.5 | 5.5
